Screens: PubChem BioAssay, ICCB-Longwood Screening Facility, Harvard Medical School
Anaer choline gr: growth inhibitors of anaerobic choline-fed gram-negatives, minimal medium, absorbance | Gram-negative bacterium anaerobic choline minimal medium; active compounds read low; many inactives read as strong as hits in the columns shown | calls only | hit rate 0.2% among 55,000;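 active means growth z-score on choline under -2 at 7 or 20 h with little or no fall on glycerol, limits in tiers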;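 further: stock transfer was 300 nL into about 50 µL; the organism is E. coli; final concentration not given here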
Anaer choline gr early: further read-out of Anaer choline gr, marked with its call; z-score; measured here: choline growth z-score, timepoint 1;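 score of optical density at 7 h as mean of two plates; lower means less growth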
The depositor's hits bear a star; i = inactive; & = joins results of further samples. Not all compounds are listed (hit frequency here may not be typical).

Molecule	Anaer choline gr	Anaer choline gr early
COC(=O)C1=C(C)NC(C)=C(C(=O)OC)C1c1ccccc1Cl	i	0.11
CN(CCNC(=O)c1ccc(Cn2c(=O)c(=O)[nH]c3cccnc32)cc1)C1CCCCC1	i	-0.94
CCn1c(SCc2nc(-c3ccccc3Cl)oc2C)nc2c(cnn2CCO)c1=O	i	-0.09
Cc1[nH]c(C(=O)N2CCCC(C(=O)NCCN3CCN(C)CC3)C2)c(C)c1C(=O)OC(C)C (stereo unspecified)	i	-0.36
Cc1sc2ncc(C(=O)NC3CC3)c(=O)n2c1C	i	-1
Cc1nc(-c2cccc(C(=O)Nc3cc(Cl)ccc3C)c2)no1	i	0.62
O=C(COc1ccccc1)Nc1cccc(OCc2cc(=O)n3cc(Cl)ccc3n2)c1	i	0.74
CCCS(=O)(=O)c1nc2ccc(NS(=O)(=O)Cc3cc(C)ccc3C)cc2s1	i	0.85
COc1ccc(NC(=O)c2ccc3c(c2)N(C)C(=O)c2ccccc2O3)cc1OC	i	0.64
CC(C)c1ccc(N2C(=O)c3cc4ccsc4n3CC2(C)C(=O)NC2CCCC2)cc1 (stereo unspecified)	i	0.35
CCOC(=O)c1[nH]c(C)c(CN(C(=O)NC(C)CC)C2CCCCC2)c1C (stereo unspecified)	i	-1.2
CCn1ncc(NC(=O)Cc2ccc(C)cc2)c(N2CCCCC2)c1=O	i	0.12
O=C(NCC1CC1)C1CCN(c2ncccc2-c2nc(-c3ccccc3)no2)CC1	i	1.6
CN1CCN(S(=O)(=O)c2ccc3[nH]c(=O)sc3c2)CC1	i	-2.1
CCOC(=O)c1cc(S(=O)(=O)N2CCCC2C(=O)Nc2cc(F)ccc2F)cn1C (stereo unspecified)	i	-0.86
CC(C)C1Oc2ccc(Cl)cc2NC1=O (stereo unspecified)	i	0.02
CCc1ccc(NC(=O)CSc2nnc(-c3nc(-c4ccc(OC)cc4)no3)n2CC)cc1	i	-1.5
Cc1ccccc1NC(=O)c1ccc(-n2nc(N3CCCC3)ccc2=O)cc1	i	-0.18
COc1ccc(C(=O)N(Cc2cccnc2)c2nc3ccc(Cl)cc3s2)c(OC)c1	i	1.3
COc1c(O[C@@H]2O[C@H](CO)[C@@H](O)[C@H](O)[C@H]2O)cc2c(c1OC)-c1ccc(SC)c(=O)cc1[C@@H](NC(C)=O)CC2	i	0.29
NCc1cccn1Cc1ccccc1F	i	-1.9
CC(C)(C)c1ccc(C(=O)Nc2cc(F)c3nc(N4CCCC4)ccc3c2)cc1	i	0.46
CC(C)NC(=O)N1CCCN(S(C)(=O)=O)CC1	i	1.1
Cc1nn2c(N3CCCCC3)cc(C(C)(C)C)nc2c1-c1ccc(F)cc1	i	0.79
Cc1nn(C)c2nc(OC(C)C(=O)N3CCN(c4ccccc4)CC3)cc(C(F)(F)F)c12 (stereo unspecified)	i	1.4
Cc1csc(NC(=O)CSc2nc(C(C)C)nc3c2c(=O)n(C)c(=O)n3C)n1	i	-1.2
Cc1ccc(S(=O)(=O)N2CCCC(c3nc(-c4cccc(C)c4)no3)C2)cc1 (stereo unspecified)	i	0.66
COc1ccnc2c1c(=O)n(CC(=O)Nc1ccc3c(c1)OCCO3)c(=O)n2C	i	0.73
O=C(NCC1CCCO1)c1sc(=S)n2c1[nH]c(=O)c1cc3c(cc12)OCO3 (stereo unspecified)	i	-1.1
CN1C(=O)c2cc(C(=O)NCCCN3CCOCC3)nn2CC1(C)C(=O)NC1CCCC1 (stereo unspecified)	i	0.6

Rewritten with two lines to a compound: entries from further up.
Values in the order: Anaer choline gr, Anaer choline gr early
> COc1ccnc2c1c(=O)n(CC(=O)Nc1ccc3c(c1)OCCO3)c(=O)n2C
    i, 0.73
> O=C(NCC1CCCO1)c1sc(=S)n2c1[nH]c(=O)c1cc3c(cc12)OCO3 (stereo unspecified)
    i, -1.1
> CN1C(=O)c2cc(C(=O)NCCCN3CCOCC3)nn2CC1(C)C(=O)NC1CCCC1 (stereo unspecified)
    i, 0.6

(next part)
Molecule	Anaer choline gr	Anaer choline gr early
Cc1ccc(NC(=O)N2CCN(C)c3ncccc32)cc1	i	-0.31
CC(C)Oc1ccc(CN2CCCC2c2cc(C(C)C)on2)cc1 (stereo unspecified)	i	0.16
CCc1ccc(S(=O)(=O)N(C(=O)c2ccccc2)c2ccc3oc(C)c(C(=O)OC)c3c2)cc1	i	-1.5
CCCS(=O)(=O)N1CCC(N2CCN(Cc3ccc(F)cc3)C(=O)C2=O)CC1	i	0.28
CCCCCOc1ccc(C(=O)Nc2ccc3c(c2)NC(=O)CO3)cc1	i	1.4
Cc1nc2ccccc2n(Cc2ccc(C(=O)NCCc3c[nH]c4ccc(Cl)cc34)cc2)c1=O	i	1.9
Cc1cccc(-c2nnc(SCC(=O)N3CCC(C)CC3)o2)c1	i	0.49
CC1(C)CN(C(=O)C2CC2)c2ccc(S(=O)(=O)NCC3CCCO3)cc21 (stereo unspecified)	i	-0.38
O=S(=O)(Cc1ccc(Cl)cc1)c1ccc(NCCN2CCCC2)nn1	i	-2.4
O=S(=O)(c1ccc2c(c1)OCCO2)N1CCCn2nc(-c3cccs3)cc2C1	i	0.12
O=C(Nc1ccc(F)cc1)c1ccccn1	i	-4
COc1ccc(S(=O)(=O)Nc2cccc(-c3nnc(-c4ccccc4)o3)c2)cc1Cl	i	-0.87
CC1=CC2=NC(=O)CC(C)(C(=O)O)N2C=C1 (stereo unspecified)	i	-1
Cc1ccccc1-c1noc(-c2nn(-c3ccc(Cl)cc3)ccc2=O)n1	i	0.25
CCCCN1CCC(CCC(=O)c2cc(Cl)c(N)cc2OC)CC1	i	-0.33

Reformatted with two lines to a compound: seven of the compounds above.
Second line of a record: Anaer choline gr, Anaer choline gr early
> CCCS(=O)(=O)N1CCC(N2CCN(Cc3ccc(F)cc3)C(=O)C2=O)CC1
 : i, 0.28
> CC1(C)CN(C(=O)C2CC2)c2ccc(S(=O)(=O)NCC3CCCO3)cc21 (stereo unspecified)
 : i, -0.38
> Cc1ccccc1-c1noc(-c2nn(-c3ccc(Cl)cc3)ccc2=O)n1
 : i, 0.25
> O=C(Nc1ccc(F)cc1)c1ccccn1
 : i, -4
> CCc1ccc(S(=O)(=O)N(C(=O)c2ccccc2)c2ccc3oc(C)c(C(=O)OC)c3c2)cc1
 : i, -1.5
> O=S(=O)(c1ccc2c(c1)OCCO2)N1CCCn2nc(-c3cccs3)cc2C1
 : i, 0.12
> COc1ccc(S(=O)(=O)Nc2cccc(-c3nnc(-c4ccccc4)o3)c2)cc1Cl
 : i, -0.87

Remaining list, next part
Molecule	Anaer choline gr	Anaer choline gr early
COc1ccc(NC(=O)CCc2c(C)nn3cnnc3c2C)cc1	i	-0.98
CCCNC(=O)c1ccc2c(=O)n(CC3CCCO3)c(SCC(=O)c3cc(C)ccc3C)nc2c1 (stereo unspecified)	i	0.42
N=C(N)N1CCc2ccccc2C1	i	-1.5&0.25
CCc1cc(C(Nc2nc(C)cc(C)n2)c2cccc(OC)c2)c(NC(=O)c2ccccc2)s1 (stereo unspecified)	i	1.5
COc1ccc2nc(NC(=O)CN3C(=O)C(C(=O)N4CCCC4)Sc4ccccc43)sc2c1 (stereo unspecified)	i	-0.26
CCc1ccc(CC2C(=O)Nc3c(C)cc(C)cc32)cc1 (stereo unspecified)	i	-0.34
COC(=O)Cn1c(=O)oc2cc(S(=O)(=O)N(C)C3CCCCC3)ccc21	i	-0.49
CCC(CC)C(=O)Nc1ccccc1SCc1cc(=O)n2c(ncn2CC(C)C)n1	i	0.05
Cc1ccccc1-c1cc2n(C)c(C)c(CCC(=O)N3CCN(c4ccccc4)CC3)c(=O)n2n1	i	0.57
O=C(CCS(=O)(=O)c1ccc2c(c1)NC(=O)CS2)Nc1cccc(Cl)c1	i	-0.32
CC(C(=O)Nc1ccc2c(c1)CCC2)n1nc(-c2ccc3c(c2)OCCO3)ccc1=O (stereo unspecified)	i	0.28
CCOC(=O)C1CCN(C(=O)c2ccc(-c3nc4ccccc4n(CC(C)C)c3=O)cc2)CC1	i	-0.8
Cc1cc(-c2ccc(CC(=O)Nc3ccc(-c4cccnc4)cc3)cc2)ccn1	i	0.91
CC(C)CCNC(=O)C1(c2ccc(NS(=O)(=O)c3ccc(CC(C)C)cc3)cc2)CC1	i	1.3
O=C1CCCc2cc(S(=O)(=O)NCC3CCC(C(=O)NCc4ccccn4)CC3)ccc2N1 (stereo unspecified)	i	0.46
COc1cc(OC)cc(C(=O)Nc2ccc(O)c(-c3nc4ccccc4s3)c2)c1	i	2
COC(=O)c1ccc2c(=O)n(Cc3ccc(OC)cc3)c(N3CCSC3)nc2c1	i	-0.22
c1cc(-c2nc(-c3ccc4nncn4c3)no2)co1	i	0.27
CCCCNc1cc(N2CCC(C)CC2)c2noc3c2c1C(=O)c1ccccc1-3	i	-0.75
CSc1c(C(C)C)cnc2c1c(=O)n(C)c(=O)n2C	i	-1.2
CC1CCN(c2ccc3nncn3n2)CC1	i	-0.17
CCc1nnc2n1NC(c1ccc(OC)cc1)C(C(=O)Nc1ccc(C)cc1C)S2 (stereo unspecified)	i	-0.41
CN1CCN(C(=O)C2CCN(c3nnc(N4CCCC4=O)s3)CC2)CC1	i	-1.3
COc1ccccc1N1C(=O)C(Cc2ccccc2)N=C1N1CCC(C(N)=O)CC1 (stereo unspecified)	i	-0.5
Cc1noc(C)c1C1CCCN1C(=O)NC1CCCCC1 (stereo unspecified)	i	0.59
c1ccc(-c2cc(NCc3cccnc3)n3nc(-c4cccnc4)nc3n2)cc1	i	1.2
CCCCOc1ccc(-c2cc3c(=O)n(CC(=O)Nc4ccc(OC)c(OC)c4)ccn3n2)cc1	i	0.46
CCC(C)NC(=O)c1ccc(NC(=O)N2CCSc3ncccc32)cc1 (stereo unspecified)	i	-0.01
COc1ccc(-c2csc(-c3nc(-c4ccc(OC)c(OC)c4)cs3)n2)cc1OC	i	-1.3
Cc1ccc(OC[C@@H](O)[C@H](C)NC(C)C)c2c1CCC2	i	-0.12
CCC(C)n1nnc2cc(S(=O)(=O)N3CCC(C(=O)NCc4cccnc4)CC3)ccc21 (stereo unspecified)	i	-0.07
COc1cc(OC)c(NC(=O)c2cc3c(=O)oc4ccccc4c3n2C)cc1Cl	i	-0.5
Cc1cccc(NC2=NC(c3ccc(C(C)C)cc3)n3c(nc(C)cc3=O)N2)c1 (stereo unspecified)	i	-1.9
Cc1nc(Nc2ccc(NS(=O)(=O)c3cccc(Br)c3)cc2)cc(N(C)C)n1	i	0.74
O=C(NC1CCCCC1)c1ccc2c(c1)N(Cc1ccccc1Cl)C(=O)CS2	i	-0.59
CCCc1cc(C2CCCN2C(=O)Nc2cccc(Cl)c2)no1 (stereo unspecified)	i	0.25
O=C(Cc1ccc(Cl)cc1)Nc1cc(-n2cnnn2)ccc1Cl	i	-0.69
COC(=O)c1ccccc1NC(=O)Cn1c(SCC(=O)NCc2ccccc2)nc2ccccc21	i	0.24
CC(C)NC(=O)c1ccc(CN2CCN(Cc3ccccc3)C2=O)cc1	i	0.22
CCOc1ccc(NC(=O)C(CC)n2c(=O)c(-c3ccccc3NC(C)=O)nc3ccccc32)cc1 (stereo unspecified)	i	-2
COc1ccc(Cl)cc1NC(=O)N1CCN(S(=O)(=O)c2ccc3c(c2)NC(=O)C(C)O3)CC1 (stereo unspecified)	i	-0.27
COc1ccc(C(Nc2nc(C)cc(C)n2)c2c(NC(=O)c3ccccc3)sc(C)c2C)cc1 (stereo unspecified)	i	0.03
Cc1nn(-c2nc3ccccc3[nH]2)c2c1C(c1cccc(F)c1F)CC(=O)N2 (stereo unspecified)	i	-0.36
COc1ccc(-c2cnc3ncnn3c2N)cc1	i	-1.3
COc1ccc(-n2nnnc2C2(Nc3ccc(OC)c(OC)c3)CCCC2)cc1	i	-0.14
CCOC(=O)C1CCN(C(=O)CSc2nccc3c2ccn3Cc2ccc(OC)cc2)CC1	i	-0.92
Cc1[nH]nc(-c2c(C)sc(C)c2S(=O)(=O)Nc2ccc(F)c(Cl)c2)c1C	i	0.11
CCCCCCCC/C=C\CCCCCCCC(=O)NCc1ccc(O)c(OC)c1	i	1.2&0.71
CNC(=O)c1nn(-c2ccccc2C)nc1CO	i	0.04
COc1ccccc1Oc1cc(-c2cccc(C(=O)NCc3ccc(Br)cc3)c2)ncn1	i	1.2
Cc1ccc(N2CCN(S(=O)(=O)c3ccc(-c4nnc(C5CC5)o4)o3)CC2)cc1	i	0.9
COc1ccc(-c2noc(CSc3ccc(-c4ccc(Br)cc4)nn3)n2)c(OC)c1	i	0.1
COc1ccc(-n2nc(C(=O)Nc3cccc(C)n3)c3c4ccccc4n(C)c3c2=O)cc1Cl	i	-0.36
CC(C)c1ccc(S(=O)(=O)N2CCCC2c2cc(C(C)C)no2)cc1 (stereo unspecified)	i	0.88
CC(=O)Nc1ccc(-c2noc(C3CCCN(C(=O)c4ccc(C)c(F)c4)C3)n2)cc1 (stereo unspecified)	i	-0.46
CN(CCc1noc(-c2ccc(C(=O)N3CCOCC3)cc2)n1)C(=O)CC1CCCC1	i	0.5
CCCCN(C)c1cc(C(=O)O)c2cc(NC(=O)c3ccccc3OC)ccc2n1	i	0.29
CC1CCN(C(=O)CN2C(=O)C(C)(C)c3ccccc32)CC1	i	-1.6
CCOc1ccc(NC(=O)NCCc2nc(-c3ccccc3)n[nH]2)cc1	i	-0.46
Cc1cn2c(S(=O)(=O)NC3CCCCC3)c(C(C)C)nc2s1	i	0.3
O=S(=O)(c1ccccc1)N1CCC2(CC1)NCCN=C2NCc1cc(F)cc(F)c1	i	-0.29
Cc1cc2c(cc1S(=O)(=O)N1CCCC1C(=O)N1CCN(c3ccccc3)CC1)OC(C)C(=O)N2 (stereo unspecified)	i	-1.5
